Screens deposited in PubChem by National Center for Advancing Translational Sciences (NCATS).
VDR inh – vitamin D3 receptor (human) inhibition; P11473; Potency, µM, without a hit: max response, negative = inhibition, usual class: inhibitors; VDR-SRC2-3 peptide fluorescence polarization, 2 h; 400,000 compounds, 0.93% hits; active = well fitted inhibition curve with a large enough effect; inconclusive = small, poorly fitted or top-dose-only effect, or another doubt; inactive = no such curve, though single readings can be large or run the other way; note: series mostly up to about 120 µM
Target sequence (P11473 whole entry, looked up): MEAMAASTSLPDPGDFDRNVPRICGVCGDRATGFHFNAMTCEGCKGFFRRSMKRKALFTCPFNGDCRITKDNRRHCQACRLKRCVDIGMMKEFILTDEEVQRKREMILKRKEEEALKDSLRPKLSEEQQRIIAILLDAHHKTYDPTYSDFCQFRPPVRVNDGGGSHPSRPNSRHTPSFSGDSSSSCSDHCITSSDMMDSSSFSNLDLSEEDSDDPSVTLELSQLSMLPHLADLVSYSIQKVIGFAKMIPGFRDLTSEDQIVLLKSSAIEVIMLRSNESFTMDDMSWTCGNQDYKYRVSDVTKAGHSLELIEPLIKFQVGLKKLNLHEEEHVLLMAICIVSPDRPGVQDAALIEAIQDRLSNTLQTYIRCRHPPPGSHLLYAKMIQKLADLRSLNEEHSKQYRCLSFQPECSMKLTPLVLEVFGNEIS
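Reagent solutions, kept cold and dark, are dispensed first; compounds are then pinned in at 23 nl, plates briefly spun, and incubated 2 h at ambient temperature. Inhibition of VDR–SRC2-3 peptide binding is read by fluorescence polarization.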
* hit, by the source's call; ? = inconclusive. % is set by controls: 0 for no effect and ±100 for the full control effect; potency is the fitted concentration of half-maximal effect.

SMILES | VDR inh
CC[C@H](C)[C@H](NC(=O)[C@H](Cc1ccc(O)cc1)NC(=O)[C@H](CCCNC(=N)N)NC(=O)[C@H](CCCNC(=N)N)NC(=O)[C@H](CC(C)C)NC(=O)[C@H](CCC(N)=O)NC(=O)[C@@H](NC(=O)[C@H](CCC(=O)O)NC(=O)[C@H](Cc1ccc(O)cc1)NC(=O)[C@H](CCC(N)=O)NC(=O)[C@H](C)NC(=O)[C@H](CCCNC(=N)N)NC(=O)[C@H](CCC(N)=O)NC(=O)[C@H](CCC(=O)O)NC(=O)[C@H](Cc1cnc[nH]1)NC(=O)[C@@H](NC(=O)[C@H](C)NC(=O)[C@H](Cc1ccc(O)cc1)NC(=O)[C@H](CC(=O)O)NC(=O)CNC(=O)[C@@H]1CCCN1C(=O)[C@H](Cc1ccc(O)cc1)NC(=O)[C@H](CCSC)NC(=O)[C@@H]1CCCN1C(=O)[C@H](CCC(=O)O)NC(=O)[C@H](CC(C)C)NC(=O)[C@@H]1CCCN1C(=O)[C@H](C)N)[C@@H](C)O)[C@@H](C)O)C(=O)N[C@@H](CC(N)=O)C(=O)N[C@H](C(=O)N[C@@H](CC(C)C)C(=O)N[C@H](C(=O)N[C@@H](CCCNC(=N)N)C(=O)N1CCC[C@H]1C(=O)N[C@@H](CCCNC(=N)N)C(=O)N[C@@H](Cc1ccc(O)cc1)C(N)=O)[C@@H](C)O)[C@@H](C)O | 7%
Cc1cccc(N2CCN(C(=O)c3ccccc3NC(=O)C3CC=CCC3C(=O)O)CC2)c1 (configuration not stated) | 11%
Cc1ccc(C(=O)NC(C)(COc2nonc2C)COc2nonc2C)cc1 | 3%
CCCCOCCCNC(=S)Nc1ccc(S(=O)(=O)N2CCOCC2)cc1 | -15%
CCn1c(=O)cc(SCC(=O)Nc2cccc(C)n2)c2ccccc21 | 22%
COc1cccc(Cn2cnc3c(N)c(C)c(C)cc32)c1 | ?
O=C(NC1CCCC1)c1ccc(CS(=O)(=O)c2cccc(C(F)(F)F)c2)o1 | -14%
CCN(C(=O)c1ccc(S(=O)(=O)N2CCC(C)CC2)cc1)C1CCS(=O)(=O)C1 (configuration not stated) | 11%
COc1ccccc1NS(=O)(=O)c1ccc(NC(=O)c2ccccn2)cc1 | -3%
COc1cc(NC(=O)CSc2ccc(-c3sc(C)nc3C)nn2)cc(OC)c1 | 8%
COC(=O)C(C)Sc1ncnc2c1nnn2-c1ccc(F)cc1 (configuration not stated) | -20%
C[C@]12CCC(=O)C=C1CC[C@@H]1[C@H]2[C@@H](O)C[C@@]2(C)[C@H]1CC[C@]2(O)C(=O)CO | -1%
CCOc1cc(C(=O)OCC(=O)Nc2ncc(Cl)c(C)c2Cl)ccc1OCC(=O)N1CCOCC1 | 11%
CCC(Sc1nc2ccccc2c2nc(CCc3c(C)n[nH]c3C)nn12)C(=O)Nc1ccc(F)cc1 (configuration not stated) | 3%
COc1cccc2cc(C(=O)NCCC3=CCCCC3)c(=O)oc12 | -7%
CCCCNC(=O)c1onc(CSc2ccccc2)c1C(=O)O | -1%
Cc1ccc(/C=N/N2CCOCC2)s1 | 0%
Cc1ccc(N2C(=O)CC(Nc3ccccc3)C2=O)cc1 (configuration not stated) | -9%
CCOC(=O)c1ccc(NS(=O)(=O)c2ccc(-c3cc(C)no3)cc2)cc1 | -8%
Cc1cnc(CNc2ncncc2-c2cccc(C#N)c2)cn1 | -26%
CSc1nc(-c2ccccc2)c(C#N)c(=O)[nH]1 | -24%
CC1(OC(=O)c2cnc3ccccc3n2)C(=O)C=C2C=C(c3ccsc3)OC=C2C1=O (configuration not stated) | 0%
Cc1ccc(S(=O)(=O)c2c(C)cc(C)nc2N2CCCCC2)cc1 | 9%
Cc1nn2c(CN(C(=O)CN3CCOCC3)c3ccccc3)nnc2c2ccccc12 | -20%
CC1CN(C(=O)COC(=O)Cc2ccc(Cl)cc2)CC(C)O1 (configuration not stated) | -12%
(listing goes on)
SMILES | VDR inh
Cc1ccc(Nc2nnc(SC(C)C(=O)NCC3CCCO3)s2)cc1C (configuration not stated) | -12%
COc1ccccc1OCC(O)Cn1nc(C)cc1C (configuration not stated) | 18%
O=C(CSc1ccsc1[N+](=O)[O-])N1CCN(c2ccc(Cl)cc2)CC1 | 2%
COc1ccc(CCn2c(C3CCCCC3)nc3c(c(=O)c4ccccc4n3C)c2=O)cc1OC | 7%
Cc1cc(C)cc(N(CCC#N)C(=O)COC(=O)C2CCN(S(=O)(=O)c3ccc(C)c(C)c3)CC2)c1 | 5%
CC(=O)NC12CC3CC(C1)CC(C(=O)N1CCN(S(=O)(=O)c4ccccc4[N+](=O)[O-])CC1)(C3)C2 | -2%
O=C(NNC(=O)C1CC1c1ccccc1)c1cccc([N+](=O)[O-])c1 (configuration not stated) | -4%
C/C=C/c1ccc(OC(C)[C@@H](O)c2ccc(O)c(OC)c2)c(OC)c1 (some centres not stated) | 1%
CCOc1cc2[nH]c(=O)n(CCCCC(=O)N3CCCCCC3)c(=O)c2cc1OCC | 5%
O=C(CSc1ccc(-c2ccccn2)nn1)c1ccc(F)cc1 | -3%
CCOC(=O)CN1CC23C=CC(O2)C(C(=O)NCc2ccc(F)cc2)C3C1=O (configuration not stated) | -1%
COc1cc(/C=C(/C#N)C(=O)NCCc2c[nH]c3ccccc23)ccc1OCc1ccccc1F | -1%
CCCCC(=O)Nc1cc(N(C)C)nc2ccccc12 | 2%
O=C(CNC1=NCCC1)c1ccc(Cl)cc1 | 18%
C=CCOc1ccc(/C=C2/C(=O)ON=C2C)cc1OC | -14%
COc1ccc(C2NC(=O)c3ccccc3O2)cc1OC (configuration not stated) | 7%
CN(c1ccccc1)S(=O)(=O)c1ccc2c(c1)oc(=O)n2C | -1%
Cc1cccc(N2CCN(C(c3ccc(F)cc3)c3nnc(-c4ccccc4)o3)CC2)c1C (configuration not stated) | 7%
CCc1noc(C)c1C(=O)Nc1cccc(S(=O)(=O)N(C)c2ccccc2)c1 | -19%
CC(c1ccccc1)N1C(=O)c2cccnc2C1=O (configuration not stated) | -9%
Cc1cc(OCCCC(=O)Nc2nnc(C3CC3)s2)ccc1Cl | -15%
Cc1cccc(OCc2nnc(SCC(=O)Nc3cccc(C(=O)N4CCOCC4)c3)o2)c1C | -7%
Nc1cccc(Oc2ccc3c(c2)C(=O)N(CCO)C3=O)c1 | 13%
COc1ccc2oc(=O)c(-c3csc(Nc4ccc(O)cc4)n3)cc2c1 | -15%
COc1ccc(/C(C)=N/Nc2nc(C)cc(-c3ccccc3)n2)cc1 | 3%

Taken from above.
Entry for CC(=O)NC12CC3CC(C1)CC(C(=O)N1CCN(S(=O)(=O)c4ccccc4[N+](=O)[O-])CC1)(C3)C2 under VDR inh: -2%
Entry for COc1ccc(/C(C)=N/Nc2nc(C)cc(-c3ccccc3)n2)cc1 under VDR inh: 3%
Entry for O=C(CSc1ccc(-c2ccccn2)nn1)c1ccc(F)cc1 under VDR inh: -3%

Other results.
SMILES | VDR inh
CCCCn1c(SCC(=O)Nc2ccccc2C(F)(F)F)nc2ccsc2c1=O | -3%
CN(Cc1ccc(F)cc1)C(=O)c1cccc(OCc2ccccc2)c1 | -28%
Cc1cc(C(=O)NN=C2CCCCC2)c2ccccc2n1 | -23%
CCc1ccccc1NC(=O)Cc1c(C(=O)O)[nH]c2ccc(Cl)cc12 | ?
COC(=O)c1sc(NC(=O)c2cc3c(s2)CCCC3)nc1C | 1%
CCN(c1ccc(OC)cc1)S(=O)(=O)c1ccc2[nH]c3c(c2c1)CCCCC3 | 4%
O=C(Nc1cccc(F)c1)N1CCCC2(CCN(S(=O)(=O)c3ccccc3)CC2)C1 | 0%
Cc1ccc(S(=O)(=O)N2CCC(=O)N(C(COCc3ccccc3)Cc3ccccc3)CC2)cc1 (configuration not stated) | -17%
Oc1ccc(-c2c(C3=CCCCC3)sc3ccccc23)cc1 | -17%
CSc1ncccc1C(=O)OCC(=O)C(C)(C)C | -11%
CCCOc1ccc(Nc2cc(C)nc(C)n2)cc1 | 11%
CCCCn1c(N)c(N(CC)C(=O)c2cccc(S(=O)(=O)N3CCN(C)CC3)c2)c(=O)[nH]c1=O | -13%
Cc1cc(C)c(C)c(S(=O)(=O)NCCN2CCOCC2)c1C | 8%
Cc1cc(C)nc(SCC(=O)Nc2ncc(Cc3cccc(Cl)c3Cl)s2)n1 | -5%
COc1ccccc1C(CNC(=O)CN(C)S(=O)(=O)c1ccc(C)cc1)N1CCCC1 (configuration not stated) | -2%
O=C(c1c(F)cccc1F)N1CCCC(c2nc(-c3ccc(F)cc3)no2)C1 (configuration not stated) | -10%
N#CCCn1ncn(-c2ccccc2)c1=S | -12%
COc1ccc(-c2cc(C(F)(F)F)nc(SCCC(=O)Nc3cc(C)on3)n2)cc1 | -1%
O=C1CCC(=O)N1CN(C(=O)c1ccco1)c1ccc(Cl)c(Cl)c1 | -2%
O=C(COC(=O)/C=C/c1cccc(Cl)c1)Nc1ccc(N2CCOCC2)cc1 | -2%
O=C(Nc1cccnc1)c1ccc(S(=O)(=O)c2ccccc2)cc1 | -11%
Cc1ccc(C(=O)Nc2sc(C(=O)N(C)C)c(C)c2C#N)cc1 | -4%
CCOc1cc(/C=C2\SC(=S)N(Nc3ccccc3)C2=O)ccc1O | 5%
Cc1cccc(OCC(=O)N/N=C2/SCC(=O)N2Cc2ccco2)c1 | -29%
N#C/C(=C/c1ccc(C(=O)O)cc1)C(=O)Nc1ccccc1 | ?

Next part; the last two above are carried over.
SMILES | VDR inh
Cc1cccc(OCC(=O)N/N=C2/SCC(=O)N2Cc2ccco2)c1 | -29%
N#C/C(=C/c1ccc(C(=O)O)cc1)C(=O)Nc1ccccc1 | ?
CCCN(C(=O)Cc1nc(N)n[nH]1)C1(C(=O)Nc2c(C)cccc2C)CCCCC1 | 6%
CN(CC(=O)N1CCc2ccccc2C1)c1ccccc1 | 0%
O=C1NCCCCC1NS(=O)(=O)c1cccc2ccccc12 (configuration not stated) | -10%
CC1(C)Cc2nc3sc4c(SCC(=O)NCc5ccco5)ncnc4c3cc2CO1 | -8%
O=C(CSc1nc2ccccc2s1)Nc1cc(S(=O)(=O)N2CCOCC2)ccc1Cl | 2%
CCOC(=O)CCSc1nc2c(c(C(F)(F)F)c1C#N)CCC2 | 3%
CN(Cc1ccon1)Cc1cn(Cc2ccccc2)nc1-c1ccc2c(c1)OCO2 | 2%
NC(=O)c1c(N)sc2c1CCCC2 | -28%
O=C1C2C3C=CC(CC3)C2C(=O)N1c1ccc2c(c1)OCO2 (configuration not stated) | 12%
CCNC(=S)N1CCN(C(=O)c2ccco2)CC1 | 5%
Cc1ccc(OCc2cc(C(=O)N3CCN(c4ccccc4)CC3)no2)cc1C | -8%
CCc1ccc(NC2Nc3cc(C)nn3S2)cc1 (configuration not stated) | -7%
COc1ccc(N(Cc2cccs2)C(=O)c2ccc(OC)c(Cl)c2)cc1 | 0%
CCOC(=O)[C@@H]1[C@H]2COc3ccccc3[C@H]2N2C(=O)N(c3ccc(Br)cc3)C(=O)[C@]12C | 5%
CCN(CC)C(=O)c1cc([N+](=O)[O-])cc2c1-c1ccc([N+](=O)[O-])cc1C2=C(C#N)C#N | 25µM*
COc1ccc(NC(=O)C2C3CC/C=C\CCC32)cc1 (configuration not stated) | 5%
C=CCN(c1ccc(C(=O)Nc2cc(C)cc(C)c2)cc1)S(C)(=O)=O | -8%
CC(Sc1nc(N2CCOCC2)nc(N2CCOCC2)n1)C(=O)Nc1ccccc1 (configuration not stated) | -10%
Cc1ccc(-c2cc3nn(-c4ccccc4)c(N)c3c(=O)o2)cc1 | -12%
COc1ccccc1CNC(=O)CN1C(=O)NC2(CCC(C)CC2)C1=O (configuration not stated) | -2%
O=C(Nc1ccc(N2CCCCC2)cc1)c1ccc(F)cc1 | -12%
O=[N+]([O-])c1cccc(/C([O-])=C(/C(=S)Nc2cccc3ccccc23)[n+]2ccccc2)c1 | 3%
CCOc1ccc(-c2cc3nc(C4CCN(C(=O)OC(C)(C)C)CC4)c(C(=O)Nc4ccc(C)cc4Cl)cn3n2)cc1 | -5%
CCOc1ccc(C(=O)NCC(C)C)cc1 | -1%
Cc1cccc(N2CCN(C(=S)NCCc3ccccc3)CC2)c1C | -4%

Entries shown so far that contain two or more sulfur atoms:
SMILES | VDR inh
CCCCOCCCNC(=S)Nc1ccc(S(=O)(=O)N2CCOCC2)cc1 | -15%
CCN(C(=O)c1ccc(S(=O)(=O)N2CCC(C)CC2)cc1)C1CCS(=O)(=O)C1 (configuration not stated) | 11%
COc1cc(NC(=O)CSc2ccc(-c3sc(C)nc3C)nn2)cc(OC)c1 | 8%
Cc1ccc(Nc2nnc(SC(C)C(=O)NCC3CCCO3)s2)cc1C (configuration not stated) | -12%
O=C(CSc1ccsc1[N+](=O)[O-])N1CCN(c2ccc(Cl)cc2)CC1 | 2%
CCCCn1c(SCC(=O)Nc2ccccc2C(F)(F)F)nc2ccsc2c1=O | -3%
COC(=O)c1sc(NC(=O)c2cc3c(s2)CCCC3)nc1C | 1%
Cc1cc(C)nc(SCC(=O)Nc2ncc(Cc3cccc(Cl)c3Cl)s2)n1 | -5%
CCOc1cc(/C=C2\SC(=S)N(Nc3ccccc3)C2=O)ccc1O | 5%
CC1(C)Cc2nc3sc4c(SCC(=O)NCc5ccco5)ncnc4c3cc2CO1 | -8%
O=C(CSc1nc2ccccc2s1)Nc1cc(S(=O)(=O)N2CCOCC2)ccc1Cl | 2%

An excerpt; count on the stated rates, not on these rows.
